StopGo FLuc – FMDV 2A StopGo reporter, firefly signal | HEK cells with a luciferase reporter of 2A StopGo recoding | Potency, µM (series often up to 57.5 µM), for the others: at the highest dose signal change, negative = less light | 120,000 tested, 0.23% active; active = well fitted falling curve with a large enough effect; inconclusive = small, poorly fitted or top-dose-only effect; inactive = no such curve, though single readings can be large or run the other way; note: nearly all actives have a fitted effect of over 60% in size; overnight with compound
2A Renilla – FMDV 2A StopGo reporter, Renilla signal; 120,000 tested, 0.32% active; HEK cells with a luciferase reporter of 2A StopGo recoding; Potency, µM (titrated, usually from 57.5 µM), inactives show at the highest dose signal change, negative = less light; active means well fitted falling curve with a large enough effect; inconclusive means small, poorly fitted or top-dose-only effect; inactive means no such curve, though single readings can be large or run the other way; note: nearly all actives have a fitted effect of over 55% in size; overnight with compound
* marks the source's active call; other numbers are inactive results; ? = inconclusive; & = joins results of further samples; [ ] = remark or other dose. % is set by controls: 0 for no effect and ±100 for the full control effect; potency is the fitted concentration of half-maximal effect.

SMILES | StopGo FLuc | 2A Renilla
Cc1ccc(NC(=O)c2ccc(CNS(=O)(=O)c3ccc4c(c3)C(C)(C)C(=O)N4C)cc2)cc1C | ? | ?
Cc1c(-c2ccc(Cl)cc2)[n+](=O)c(-c2ccccc2)cn1[O-] | 0% | 20%
CCOc1ccc(-c2nnc(SCC(=O)NC3CCCCC3)nc2-c2ccc(OCC)c(OC)c2)cc1OC | -23% | -13%
O=C(CSc1nnc(CNC(=O)c2ccccc2)n1-c1ccc(F)cc1)Nc1ccccc1F | 36%[activator] | 22%
COc1ccc(C(=O)c2oc3ccccc3c2NC(=O)c2nc(SC)ncc2Cl)cc1Cl | -11% | -12%
CN(C)c1ccc(CNC(=O)C2CCCN(S(=O)(=O)c3ccc4c(c3)CCCC(=O)N4)C2)cc1 (configuration not stated) | ? | ?
C[C@H]1[C@@H]2Cc3ccc(O)cc3[C@@]1(C)CCN2C | -2% | -22%[288 µM]
CCOC(=O)C1CCC(CN(Cc2ccc(Cl)cc2)S(=O)(=O)c2cc(Cl)cc(Cl)c2)CC1 (configuration not stated) | -18% | -11%
Cc1ccc(CCNC(=O)CSCc2nc(-c3ccc(C)cc3)oc2C)cc1 | -19% | ?
Cc1ccc(-c2cnc(CCC(=O)Nc3ccc(C(=O)OC(C)C)cc3)o2)cc1 | 42%[activator] | 4%
CCn1c(C(=O)N2CCC(C(=O)N3CCN(c4cccc(C)c4C)CC3)CC2)cc2sccc21 | ? | ?
COc1ccc(OC)c(NC(=O)CSC2=Nc3ccccc3C3=NC(CCC(=O)NCc4ccccc4)C(=O)N23)c1 (configuration not stated) | -13% | 12%
O=C(Nn1cnnc1)c1ccc(Br)cc1 | -2% | -9%
Cc1cc(CSCC(=O)Nc2ccc(C(F)(F)F)cc2)no1 | 63%[activator] | 41%[activator]
Cc1cc2c(cc1S(=O)(=O)N(CCN(C)C)Cc1ccco1)OCC(=O)N2 | -22% | 8%
O=C(NCc1ccccn1)c1cccc(I)c1 | 108%[activator] | 3%
O=C(CCCOC(=O)c1cc2ccccc2[nH]1)c1ccccc1 | 0% | 2%
COc1ccc(-c2c(C(=O)O)sc3c2NC(=O)CC32C(=O)N(C)c3cc(F)ccc32)cc1 (configuration not stated) | 3% | -13%
CCOc1cc(C#N)c(NC(=O)c2ccccc2)cc1OCC | 86%[activator] | 38%[activator]
Cc1cccc(NC(=O)CSC2=Nc3ccccc3C3=NC(CCC(=O)NCc4ccco4)C(=O)N23)c1 (configuration not stated) | -8% | 7%
Cc1csc(SCC(=O)C(C)(C)C)n1 | 6% | 4%
COc1cc(C(=O)N2CCNC(=O)C2CC(=O)Nc2ccc(C)c(C)c2)cc(OC)c1OC (configuration not stated) | -9% | -6%
COCCCNC(=O)CCCCn1c(=O)c2ccccc2n(CC(=O)Nc2ccc(C)cc2C)c1=O | -6% | -13%
N#C/C(=C/c1cccc2c1OCCCO2)c1nc(-c2ccccn2)cs1 | 13% | -8%
Cc1ccc(-c2cc(N)n[nH]2)cc1 | 0% | -1%
Further compounds
SMILES | StopGo FLuc | 2A Renilla
CCN(CC(=O)NC)S(=O)(=O)c1ccc(C)c2ncccc12 | 1% | -11%
CCc1ccc(S(=O)(=O)c2cn(C)c3cc(F)c(F)cc3c2=O)cc1 | -8%&-8% | 6%&-5%
CCN(CC)c1ccc2nnc(CCC(=O)N3CCC(C)CC3)n2n1 | 1% | 7%
CCOc1ccc(-c2cc(C(=O)O)c3cc(C)cc(C)c3n2)cc1 | 40% | 9%
Cc1cc2c(cc1S(=O)(=O)CCC(=O)N1CCN(c3ccccc3)CC1)OCC(=O)N2 | -9% | -15%
C=C(C)[C@@H]1CCC2(C(=O)OC)CC[C@]3(C)C(CCC4[C@@]5(C)C/C(=C\c6ccccc6)C(=O)C(C)(C)C5CC[C@]43C)C12 (some centres not stated) | 15% | 9%
C/C(Cc1ccccc1)=N\NC(=O)c1ccc(C)cc1 | 72%[activator] | 13%
CCc1ccc(NC(=O)c2cc(CN3CCOCC3)on2)cc1 | 80%[activator] | 0%
Cc1ccc(Nc2nc(N)nc(CN3CCN(Cc4ccc5c(c4)OCO5)CC3)n2)cc1Cl | -17% | -19%
COC(=O)c1ccccc1NC(=O)CN(C)S(=O)(=O)c1c(C)noc1C | -18% | -8%
Cc1ccc(C)c(NC(=O)C2CCCN(S(=O)(=O)c3c(C)noc3/C=C/N(C)C)C2)c1 (configuration not stated) | -22% | -14%
CCCOc1ccc(C(=O)N(Cc2ccc(N(C)C)cc2)CC2CCCO2)cc1 (configuration not stated) | -16% | 42%[activator]
COc1ccc(C)cc1NC(=O)NC(c1ccccc1)c1nnc(-c2ccccc2Cl)o1 (configuration not stated) | 0% | 54%[activator]
CCc1ccc(NC(=O)CSc2cn(CC(=O)N3CCCC3)c3ccccc23)cc1 | 0% | ?
Cc1ccc(CSCCNC(=O)CN(c2cccc(C)c2C)S(=O)(=O)c2ccccc2)cc1 | ? | -16%
COc1c(I)cc(Br)cc1/C=C/C(=O)O | 7% | 3%
CCCc1ccc(C(=O)CSc2nc(CN3CCOCC3)nc3ccccc23)cc1 | -30% | ?
CCC(=O)N1CCN(c2ccc(NC(=O)c3ccc(C#N)cc3F)cc2Cl)CC1 | 26% | 17%
Cc1ccc(-c2noc(CCC(=O)Nc3ccn(C)n3)n2)cc1 | -13% | ?
Cc1nn(C)c2ncc(NC(=O)CCc3ncc(-c4ccccc4)o3)cc12 | 6% | 0%
O=C1CC2(CCCC2)C(=O)N1Cc1ncc(-c2ccccc2)o1 | 151%[activator] | 1%
CCOc1ccccc1NC(=O)Cn1c(=O)n(-c2ccc(C)cc2)c(=O)c2c1cnn2C | -15% | 6%
N#Cc1cccc(OCC(=O)Nc2ccccc2)c1 | 122%[activator] | 7%
Cc1ccc(NC(=O)CSc2ncnc3ccccc23)cc1Cl | 13% | -23%
Cc1ccc(-n2nc3c(N4CCCC(C(=O)NCc5ccc(Cl)cc5)C4)nnc(C)c3c2C)cc1 (configuration not stated) | -14% | -4%
Further compounds:
SMILES | StopGo FLuc | 2A Renilla
O=C(CC1CCCC1)N(Cc1ccco1)C1CC1 | -11% | -4%
O=[N+]([O-])C(Cl)C(=Nc1ccc(Br)cc1)n1nnc2ccccc21 (configuration not stated) | ? | -6%[1.06 µM]
O=C(O)c1cc(Cl)cc(Cl)c1 | 12% | 13%
Cn1c(SCc2ccc(F)cc2)nc(=O)c2c1NC(=O)CC2c1ccc(F)c(Br)c1 (configuration not stated) | 8% | 10%
COCCn1c(C)cc(O)c(C(c2ccccc2)N2CCC(C)CC2)c1=O (configuration not stated) | -26% | -12%
Cc1ccc(CNC(=O)CN2C(=O)CC(c3ccc(C)c(C)c3)=Nc3ccccc32)cc1 | 76%[activator] | -7%
Cc1cccc(S(=O)(=O)Nc2nc3ccccc3nc2Nc2ccc(C)c(F)c2)c1 | 5% | 10%
COc1cccc(N2CCN(C(=O)c3cnn(-c4cccc(F)c4)c3-n3cccc3)CC2)c1 | -1% | -4%
CCc1ccc(-n2nc(C)c3c(C)cc(=O)n(CC(=O)Nc4cc(Cl)ccc4OC)c32)cc1 | -4% | -12%
CCOc1ccccc1NC(=O)N1CCC2(CC1)c1cccn1-c1ccc(C)cc1N2CC | -13% | -9%
O=C(Cn1ccn(-c2ccc(F)c(F)c2)c(=O)c1=O)c1ccc(F)cc1 | -15% | -9%
COc1ccc(C/C(C#N)=C\Nc2cccc(C(F)(F)F)c2)cc1 | 0% | 24%
Cc1ccc(S(=O)(=O)N(CCc2ccccc2)CC(=O)Nc2cc(C)ccc2C)cc1 | -19% | 5%
COc1ccc(Nc2nc3cc(Cl)c(Cl)cc3n3cnnc23)cc1Cl | -1% | -3%
CN1C/C(=C/c2ccccc2)N2C(=O)C[C@@H](c3ccccc3)N=C12 | 10% | 8%
COc1ccc(/C=C/c2nc(C#N)c(NCCc3ccc(OC)c(OC)c3)o2)cc1OC | -36% | ?
CSc1cccc(NC(=O)/C=C/c2ccc(F)cc2)c1 | 8% | 9%
CCOC(=O)c1ccc(NC(=O)c2ccc(CN3C(=O)CCn4nc(C)cc43)cc2)cc1 | -1% | -11%
COCCNc1oc(COc2ccccc2F)nc1C#N | 57%[activator] | -2%
O=C1CC(c2cc3c(cc2Br)OCO3)c2cc3c(cc2N1)OCCO3 (configuration not stated) | 27% | 38%[activator]
COc1ccc(S(=O)(=O)NCC(c2ccco2)N2CCOCC2)cc1OC (configuration not stated) | 8% | 133%[activator]
O=S(=O)(NCc1ccc(N2CCCC2)nc1)c1ccccc1 | 0% | -7%
Cc1nc(C23CC4CC(CC(C4)C2)C3)c(C)s1 | -2% | -10%
Cc1nc(-c2ccc(C)c(S(=O)(=O)N3CCCCC3)c2)cs1 | -5% | 33%[activator]
Cc1ccc(OCC(=O)NCc2ccc(Cn3cccn3)cc2)c(C)c1 | 20% | -3%
The results go on:
SMILES | StopGo FLuc | 2A Renilla
Cc1ccccc1Nc1c(-c2ccc(Cl)cc2)nc2c(C)cccn12 | -15% | -12%
COc1cccc(CNC(=O)c2cccc(OC)c2)c1 | 47%[activator] | -7%[1.06 µM]
O=C(NCc1cccc2ccccc12)C(=O)c1c[nH]c2ccccc12 | 7% | 125%[activator]
CCCCOCCCNC(=O)c1cc(=O)c2ccccc2o1 | 23% | 12%
CSc1ccc(CCNC(=O)C2CCCN(S(=O)(=O)N(C)c3ccc(F)cc3)C2)cc1 (configuration not stated) | ? | ?
CCc1ccc(C(=O)c2cn(CC(=O)Nc3ccc(OC)c(Cl)c3)c3nc(C)ccc3c2=O)cc1 | 6% | 12%
Cc1ccccc1OCC(=O)N(Cc1ccc(N(C)C)cc1)CC1CCCO1 (configuration not stated) | -8% | -5%
Cc1ccc(-c2nc(CSc3nnc(NC(C)(C)C)s3)co2)cc1 | ? | ?
CC(=O)c1ccc(NC(=O)c2c3c(nc4ccccc24)C(=O)N(C2CCCCC2)C3)cc1 | -14% | 19%
Cc1[nH]c2ccccc2c1CCN(Cc1ccncc1)C(=S)NC(C)(C)C | -14% | 15%
CCc1ccccc1NC(=O)c1ncoc1-c1ccco1 | 8% | -6%
CCOc1ccccc1NS(=O)(=O)c1ccc(N2CCCCS2(=O)=O)cc1 | 34%[activator] | 25%
Cc1cccc(-n2ccnc2SCC(=O)Nc2nc3ccccc3s2)c1 | 188%[activator] | 11%

A draw from above in order of molecular weight, lowest first:
SMILES | StopGo FLuc | 2A Renilla
Cc1nc(C23CC4CC(CC(C4)C2)C3)c(C)s1 | -2% | -10%
COc1cccc(CNC(=O)c2cccc(OC)c2)c1 | 47%[activator] | -7%[1.06 µM]
O=C1CC2(CCCC2)C(=O)N1Cc1ncc(-c2ccccc2)o1 | 151%[activator] | 1%
Cc1c(-c2ccc(Cl)cc2)[n+](=O)c(-c2ccccc2)cn1[O-] | 0% | 20%
CN1C/C(=C/c2ccccc2)N2C(=O)C[C@@H](c3ccccc3)N=C12 | 10% | 8%
COCCn1c(C)cc(O)c(C(c2ccccc2)N2CCC(C)CC2)c1=O (configuration not stated) | -26% | -12%
Cc1cccc(-n2ccnc2SCC(=O)Nc2nc3ccccc3s2)c1 | 188%[activator] | 11%
Cc1ccccc1OCC(=O)N(Cc1ccc(N(C)C)cc1)CC1CCCO1 (configuration not stated) | -8% | -5%
Cc1ccc(-c2cnc(CCC(=O)Nc3ccc(C(=O)OC(C)C)cc3)o2)cc1 | 42%[activator] | 4%
Cc1cc2c(cc1S(=O)(=O)N(CCN(C)C)Cc1ccco1)OCC(=O)N2 | -22% | 8%
COc1ccc(S(=O)(=O)NCC(c2ccco2)N2CCOCC2)cc1OC (configuration not stated) | 8% | 133%[activator]
Cc1cccc(S(=O)(=O)Nc2nc3ccccc3nc2Nc2ccc(C)c(F)c2)c1 | 5% | 10%
CC(=O)c1ccc(NC(=O)c2c3c(nc4ccccc24)C(=O)N(C2CCCCC2)C3)cc1 | -14% | 19%
CCOc1ccccc1NC(=O)Cn1c(=O)n(-c2ccc(C)cc2)c(=O)c2c1cnn2C | -15% | 6%
COc1cccc(N2CCN(C(=O)c3cnn(-c4cccc(F)c4)c3-n3cccc3)CC2)c1 | -1% | -4%
COc1ccc(C)cc1NC(=O)NC(c1ccccc1)c1nnc(-c2ccccc2Cl)o1 (configuration not stated) | 0% | 54%[activator]
COc1cc(C(=O)N2CCNC(=O)C2CC(=O)Nc2ccc(C)c(C)c2)cc(OC)c1OC (configuration not stated) | -9% | -6%
CCn1c(C(=O)N2CCC(C(=O)N3CCN(c4cccc(C)c4C)CC3)CC2)cc2sccc21 | ? | ?
COCCCNC(=O)CCCCn1c(=O)c2ccccc2n(CC(=O)Nc2ccc(C)cc2C)c1=O | -6% | -13%
Cc1cccc(NC(=O)CSC2=Nc3ccccc3C3=NC(CCC(=O)NCc4ccco4)C(=O)N23)c1 (configuration not stated) | -8% | 7%
C=C(C)[C@@H]1CCC2(C(=O)OC)CC[C@]3(C)C(CCC4[C@@]5(C)C/C(=C\c6ccccc6)C(=O)C(C)(C)C5CC[C@]43C)C12 (some centres not stated) | 15% | 9%

Compound activity (PubChem BioAssay)

This is a subset (hit frequency here may not be typical).
